Screens as filed in PubChem.
Ba CapD inh: CapD enzyme inhibition; z-score (test concentration not listed); 0.23% of 140,000 active; AID 492967; purified CapD enzyme, fluorescence intensity read-out; active compounds read low; some hits fall short of the stated cut;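 active = z-score under -4 in either of two replicates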;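 also: stock transfer was 100 nL into about 40 µL; score is relative to mean and spread of the plate; one replicate is shown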
AID504770: E. coli YBA685 growth inhibition, screen for V. cholerae RctB inhibitors; E. coli YBA685 rctB-dependent plasmid, OD600 growth, 3 h; active compounds read low; z-score (test concentration not listed); 0.27% of 130,000 active; AID 504770;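 active = z-score under -2 on both plates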;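 also: wells of about 30 µL received 100 nL stock; score is relative to mean and SD of the test wells; the first replicate is given; strong numbers were not always called active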
Starred values were filed as active, the others as inactive; nt = no result given.

Start of the data: the first four compounds (preview)
Molecule	Ba CapD inh	AID504770
CN(C)c1cccc(C(=O)OCCN2C(=O)c3ccccc3C2=O)c1	nt	-0.3
CN(CC(=O)Nc1ccc(F)c(F)c1F)C(=O)/C=C/c1ccco1	nt	1.5
CCCCN(CC)C(=O)c1cc(OC)c(OC)c(OC)c1	0.38	-0.2
Cc1cccc(N=C2c3ccccc3-c3nc4ccccc4cc32)c1	36	nt

Main list, from the first entry:
Molecule	Ba CapD inh	AID504770
CN(C)c1cccc(C(=O)OCCN2C(=O)c3ccccc3C2=O)c1	nt	-0.3
CN(CC(=O)Nc1ccc(F)c(F)c1F)C(=O)/C=C/c1ccco1	nt	1.5
CCCCN(CC)C(=O)c1cc(OC)c(OC)c(OC)c1	0.38	-0.2
Cc1cccc(N=C2c3ccccc3-c3nc4ccccc4cc32)c1	36	nt
CCOC(=O)c1c(CC(C)C)csc1NC(=O)c1ccccc1OC(C)=O	-0.82	0.65
COc1cc(S(=O)(=O)N(C)C)ccc1F	-0.49	0.05
CCCC(OC(=O)CN1C(=O)COc2ccccc21)C(=O)NC1CCCC1 (configuration not stated)	nt	-0.25
COc1cccc(CCOC(=O)N2CCN(c3ccccc3C)CC2)c1	0.005	nt
Cc1onc(-c2ccccc2Cl)c1C(=O)N1CCCCC1	-0.08	nt
COc1ccc(N=C2SC(C(=O)N3CCN(c4ccc(OC)cc4)CC3)CC(=O)N2C)cc1 (configuration not stated)	-0.22	nt
O=C(Nc1nccc2ccccc12)c1cccs1	7	0.55
Cc1nc(N2CCC(C)CC2)c2c(C)c(C(=O)N3CCN(Cc4ccccc4)CC3)sc2n1	0.49	nt
O=C(CCN1C(=O)/C(=C/c2ccccc2Cl)SC1=S)Nc1ncc(Cc2ccccc2)s1	-0.19	nt
Cc1cc(-c2csc(NC(=O)C3CCCO3)n2)c(C)n1CCc1ccccc1 (configuration not stated)	nt	-0.35
N#CCCOC1(C#CC#CC2(OCCC#N)CCCCC2)CCCCC1	0.09	-0.15
CN(CCO)S(=O)(=O)c1ccc2c(c1)oc(=O)c1cc(S(=O)(=O)N(C)CCO)ccc12	-0.6	1
CC(C)n1cc(/C(N)=N/O)c(=O)n(Cc2ccccc2)c1=O	-0.07	-0.05
N#CC1=C(N)OC(c2cccs2)=C(C#N)C1c1cccs1 (configuration not stated)	-0.58	-0.85
CC(C)Nc1nc(-c2ccncc2)nc(-c2ccc(Cl)cc2)c1C#N	0.47	nt
Cc1ccsc1C=Nc1c(F)c(F)c(F)c(F)c1F	-1.6	-1.1
Cc1n[nH]c(=O)nc1NCC1CCCO1 (configuration not stated)	0.21	-0.4
COc1ccc2cc(Br)ccc2c1CC(=O)NCc1ccco1	-0.68	0.25
COCCN1C(=O)c2oc3cc(C)c(C)cc3c(=O)c2C1c1ccc(OCC(N)=O)cc1 (configuration not stated)	-0.19	1.2
O=C(NCCN1CCN(c2ccccc2F)CC1)c1cc(C2CC2)[nH]n1	0.59	0.25
Cc1onc(-c2ccccc2)c1C(=O)N(C)CCc1ccccn1	-1	-2
CCn1c(CNC(=O)c2ccccc2F)nnc1SCc1nc2ccccc2c(=O)[nH]1	nt	-0.1
O=C(NC(=S)Nc1n[nH]c(C2CC2)c1N=Nc1ccc(Cl)cc1)c1ccccc1	-1.2	nt
Cc1ccccc1NC(=O)CSc1ccccc1C(=O)O	-0.33	-0.5
N#CCCC1(CCC#N)CCCC(CCC#N)(CCC#N)C1=O	-0.34	0.65
Cc1cccc(NC(=S)NCCN2CCOCC2)c1	nt	-1.2
O=C(NCC1CCCO1)c1nc(-c2cccc(C(F)(F)F)c2)no1 (configuration not stated)	-0.34	-0.8
O=C(COc1ccccc1)N1N=C(c2ccc(Br)cc2)CC1(O)C(F)(F)F (configuration not stated)	-0.59	nt
CC1CC(C)CN(Cc2nc(N)nc(Nc3ccccc3)n2)C1 (configuration not stated)	-0.03	0.4
Cn1c(=O)c2c(nc(N3CCCCC3)n2CCCc2ccccc2)n(C)c1=O	0.6	-0.3
CC1=CC(=C2C(=O)NC(=S)NC2=O)C=C(C)N1Cc1ccco1	nt	-2.3
CC1CCCCC1N(C)C1CCN(CCCNC(=O)/C=C/c2ccccc2Cl)CC1 (configuration not stated)	-1.1	-0.5
CC1(C)C2CC=C(COC(=O)N3CCC4(CC3)C(=O)NCN4c3ccccc3)C1C2 (configuration not stated)	-0.42	nt
CSc1cccc(NC(=O)CSc2ncn[nH]2)c1	0.83	-0.65
O=C1OCCC1Sc1nc2cc(Cl)ccc2s1 (configuration not stated)	nt	0.15
O=C(NCCN=C1NS(=O)(=O)c2ccccc21)c1ccncc1	-0.06	1.6
Cc1ccc(CS(=O)(=O)c2ccccc2-c2nnc(-c3ccccc3)o2)cc1	-0.15	nt
C=CCN(CC=C)CCOc1ccc(Cl)cc1	-0.07	0.55
CCOc1ccc(-c2nc3c(c(C)nn3-c3ccccc3)c3cc(OC)c(OC)cc23)cc1	0.27	-0.35
COc1ccc2[nH]c3c(=O)n(CC(=O)NCc4ccco4)c(=S)[nH]c3c2c1	2.7	-0.2
CCOC(=O)/C(=N/O)C1=NC(C)(C)Cc2cc(OC)c(OC)cc21	0.07	0.15
C/C(=N\OC(=O)NC1CCCCC1)c1sc(-c2ccc(Cl)cc2)nc1C	-0.18	nt
O=C1c2cccnc2C(=O)N1Cc1ccc(S(=O)(=O)NC2CCCCC2)cc1	0.43	-0.1
CCc1c(C)n([O-])c2c([n+]1=O)CCCCC2	0.49	1.9
COc1cc(C2Nc3ccc(C(=O)c4ccccc4)cc3NC3=C2C(=O)CCC3)cc(OC)c1OC (configuration not stated)	-1.2	nt
Cc1cc(-c2csc(NC(=O)CN3C(=O)C4C5C=CC(C5)C4C3=O)n2)c(C)n1-c1ccccc1 (configuration not stated)	nt	-0.35
CCN1CCN(C(=O)c2ccc(S(=O)(=O)Nc3ccc(OC)cc3)cc2)CC1	nt	-0.55
O=C(NNC(=O)c1ccccc1NC(=O)c1cccs1)OCCOc1ccc2ccccc2c1	35	nt
COc1ccc(/C=C2\N=C(c3ccc(Cl)c([N+](=O)[O-])c3)OC2=O)cc1OC(C)=O	0.09	nt
CCC(=O)Nc1c(C(=O)N(CCN(C)C)Cc2ccco2)oc2ccccc12	108	-2.2
Cc1ccc(-c2cn3nc(N4CCCC(C(=O)Nc5cc(C)cc(C)c5)C4)sc3n2)cc1 (configuration not stated)	0.23	0.25
COC(=O)c1cc(COC(=O)c2ccc(OC(F)(F)F)cc2)oc1C	nt	-0.15
CC(C)(C)C(=O)NC(=O)Nc1ncc(-c2ccncn2)c(-c2ccc(C(F)(F)F)cc2)n1	-0.025	nt
CCOC(=O)C1(C)C=C(Nc2cccc(Cl)c2)C(=O)N1c1cccc(Cl)c1 (configuration not stated)	-0.01	nt
COc1ccc(CCNC(=O)OCCc2cccc(OC)c2)cc1	-0.57	nt
Cc1cc(NC(=O)C2CCCCC2C(=O)O)no1 (configuration not stated)	-0.76	-1.2

Later entries.
Molecule	Ba CapD inh	AID504770
Cc1cc(C)c2c(NCc3ccc(N4CCCCC4)cc3)n[nH]c2n1	nt	0.5
CC12CC[C@H]3[C@@H](CCC4(O)C[C@H](O)CCC34/C=N/NC(=O)c3cccc(Br)c3)C1(O)CCC2C1=CC(=O)OC1 (some centres not stated)	-0.44	nt
CC(NC(=O)CCN1CCOCC1)C1COc2ccccc2O1 (configuration not stated)	-0.34	-0.6
Cc1noc(C)c1S(=O)(=O)NC1CCCCCC1	0.05	0
Cc1ccc(COC(=O)NCCc2c[nH]c3ccc(O)cc23)cc1	0.23	nt
CC(C)NC(=O)/C(C#N)=C/c1ccc(-c2ccc(S(=O)(=O)N3CCOCC3)cc2)o1	nt	0.25
COc1ccc(CCN2C(=O)/C(=C\c3ccccc3C(=O)O)SC2=S)cc1OC	-0.17	-0.3
N#C/C(=C\N1CCCC1)S(=O)(=O)c1ccc(Cl)cc1	0.01	-0.05
COC(=O)C1=C(N)Oc2ccccc2C1C(C#N)C#N (configuration not stated)	23	-1.5
O=c1oc2ccccc2c(O)c1NS(=O)(=O)c1ccc2c(c1)CCCC2	0.89	-0.45
CCc1ccc(OCC(=O)Nc2ccc(S(N)(=O)=O)cc2)cc1	0.09	-0.4
O=C(CSc1nc(NC2CCCCC2)c2ccccc2n1)NCc1ccco1	16	nt
CC(=O)NS(=O)(=O)c1ccc(NC(=O)c2ccco2)cc1	nt	-0.15
Cc1ccc(SCc2[nH]nc3c2C(c2ccoc2)C(C#N)=C(N)O3)cc1 (configuration not stated)	nt	3.8
CCn1c(N)c(C(=O)CSc2ncccn2)c(=O)[nH]c1=O	nt	-1.1

An excerpt of these results, as labelled records:
Cc1cc(C)c2c(NCc3ccc(N4CCCCC4)cc3)n[nH]c2n1
  Ba CapD inh: nt	AID504770: 0.5
CC(C)NC(=O)/C(C#N)=C/c1ccc(-c2ccc(S(=O)(=O)N3CCOCC3)cc2)o1
  Ba CapD inh: nt	AID504770: 0.25

Further records follow.
Molecule	Ba CapD inh	AID504770
N#CC(C#N)=Cc1cn(Cc2ccccc2)c2ccccc12	nt	2.5
Cc1ccccc1NC(=O)C1C(c2cccs2)C(C#N)=C(SCC(N)=O)NC1(C)O (configuration not stated)	nt	-0.45
CCn1cc(C2=NOC(C(=O)NC3CCCC3)C2)c(C)n1 (configuration not stated)	-0.48	0.1
CN(C)c1ccc(-n2nnnc2SCc2cc(F)cc(F)c2)cc1	-0.52	-0.2
CCOC(=O)c1cc(-c2ccc(OC)c(S(=O)(=O)NCCN3CCCCCC3)c2)on1	0.095	1
O=C1CCCC/C1=C/Nc1cccc(N/C=C2/CCCCC2=O)c1	0.47	-0.15
CSc1sc(C(=O)N(C)C)cc1S(=O)(=O)C(C)C	-0.33	0.4
O=C(Nc1nccs1)c1cccc(NS(=O)(=O)c2ccccc2)c1	nt	0.3
O=C(Cc1coc2ccc3ccccc3c12)NCc1ccco1	nt	-0.3
O=c1c2sccc2nc(SCc2cc(=O)n3cc(Br)ccc3n2)n1C1CC1	-0.22	0.15
O=C1OC(c2ccccc2)=N/C1=C\c1cccc(Cl)c1	5.8	nt
CC(NCc1ccc(S(N)(=O)=O)cc1)C(=O)NCc1ccccc1 (configuration not stated)	nt	-0.4
Nc1c(N(C(=O)c2ccc(Br)o2)C2CCCC2)c(=O)[nH]c(=O)n1Cc1ccccc1	nt	-0.15
CCNc1ncnc2c1cnn2-c1ccc(C)c(C)c1	0.51	-0.25
CCOC(=O)CC(=O)Nc1c(NC)c2ccccc2oc1=O	0.1	-0.4
CC(C)C(=O)NCc1cccnc1	0.66	0.35
COc1ccc(C(=O)NC(Nc2cc(C)on2)(C(F)(F)F)C(F)(F)F)cc1	0.81	-0.7
O=C(CSc1n[nH]c(Cc2ccccc2)n1)NC1CCCCC1	0.12	0.85
Cc1cc(C)c(C(=O)CC(N2CCOCC2)C(F)(F)F)c(=O)[nH]1 (configuration not stated)	0.81	0.5
O=C(CCC(=O)N1CCC(Cc2ccccc2)CC1)c1ccc(F)cc1	-0.74	nt
CCOC(=O)c1sc2nc(-c3ccccc3OC)nc(C)c2c1C	1.9	-0.7
O=C(CSC1=NC(=O)C(c2ccccc2)C(=O)N1)Nc1nncs1 (configuration not stated)	nt	-0.1
CC1=C(C(=O)OCC2CCCO2)C(c2coc3ccc(C)cc3c2=O)C2=C(CC(c3cccs3)CC2=O)N1 (configuration not stated)	-0.3	nt
COc1ccccc1OCc1ccc(C(=O)NCc2ccncc2)o1	nt	-0.15
CCC(C)(C)c1ccc(S(=O)(=O)N2CCN(c3ccccn3)CC2)cc1	0.92	nt
CCCCN(C)c1nc(-c2ccc([N+](=O)[O-])cc2)nc2ccccc12	0.075	nt
O=C(c1ccc(Cl)cc1)N1CCCCC(Sc2nnc(C3CC3)n2C2CC2)C1=O (configuration not stated)	nt	-0.85
CC(=O)Oc1cccc(/C=C2\N=C(c3ccco3)OC2=O)c1	0.73	0.65
COc1cc(NC(=O)c2cc3nc(-c4ccco4)cc(C(F)(F)F)n3n2)cc([N+](=O)[O-])c1	-0.13	nt
CCOC(=O)C1=C(Nc2ccc(Cl)cc2)OCC1=O	0.65	-0.3
CCCCOc1ccc(C2C=C(Nc3ccc(C)c(C)c3)C(=O)N2c2ccc(C)c(C)c2)cc1 (configuration not stated)	42	nt
CCOC(=O)C1=C(C)N=c2s/c(=C3\C(=O)N(CC)c4ccccc43)c(=O)n2C1c1ccc(OC(C)=O)cc1 (configuration not stated)	-0.075	nt
CC(C)(C)c1ccc(C(=O)Nc2ccc(F)cc2)s1	0.025	0.75
CCOC(=O)c1c(-c2cccs2)csc1NC(=O)c1ccccc1	nt	1.8
CC(Oc1ccc(F)cc1)c1nnc(SCC(=O)N2CCNC2=O)o1 (configuration not stated)	nt	-0.25
CC1(C)CC(N2CCOCC2)CC(C)(C)N1	nt	-0.55
O=C1CC(=O)CC(c2ccc(Cl)c(Cl)c2)C1	-0.1	nt
Cc1cc(C)nc(NC(=O)COC(=O)/C=C/c2cccs2)n1	nt	-0.6
Cc1c(C(=O)Nc2ccncc2)oc2ccccc12	nt	0.6
O=S1(=O)CC(c2ccc(O)cc2)CS(=O)(=O)C1	-0.29	nt
O=C(Cn1cnc2ccccc2c1=O)NCC(=O)N1CCN(c2cccc(Cl)c2)CC1	-0.12	nt
CN(CC(=O)Nc1ccc2[nH]c(=O)[nH]c2c1)c1ccc2ccccc2c1	nt	0.8
C#CCOC(=O)c1cc(Cl)c(=O)n(Cc2ccc(Cl)cc2Cl)c1	0.29	nt

An excerpt (hit frequency here may not be typical).
